GLA inh pH 4.5: alpha-galactosidase A (human) inhibition, pH 4.5 | activity change, negative = inhibition, % at 105 µM | 230,000 tested, under 10 active | AID 1467 | purified enzyme, 4-MU-alpha-Gal fluorescence, pH 4.5; inconclusive = small, poorly fitted or top-dose-only inhibition, or a rising curve; inactive = flat fitted curve, though single readings scatter; no compound was filed as active;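 further: 0% = full activity with enzyme and -100% = basal without enzyme; dose as in the result columns while the protocol names 77 µM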
Target sequence (P06280 whole entry, looked up): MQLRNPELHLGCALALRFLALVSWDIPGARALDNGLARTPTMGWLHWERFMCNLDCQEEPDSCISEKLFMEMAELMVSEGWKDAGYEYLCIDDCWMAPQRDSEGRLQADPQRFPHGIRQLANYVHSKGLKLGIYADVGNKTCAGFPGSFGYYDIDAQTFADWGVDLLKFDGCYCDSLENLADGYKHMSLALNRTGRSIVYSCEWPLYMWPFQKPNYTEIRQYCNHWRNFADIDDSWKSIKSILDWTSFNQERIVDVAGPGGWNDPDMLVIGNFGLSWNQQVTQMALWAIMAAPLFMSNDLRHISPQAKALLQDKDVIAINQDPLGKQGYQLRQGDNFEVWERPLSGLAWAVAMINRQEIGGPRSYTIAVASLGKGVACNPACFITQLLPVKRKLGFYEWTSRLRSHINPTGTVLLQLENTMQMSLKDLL
Rango-impB inh: inhibitors of Rango-importin beta complex formation; hit rate 0.031% among 340,000; Rango CFP/YFP FRET sensor + importin beta, 45 min; AID 540263; Potency, µM (series often up to 92.2 µM), for the others: at the highest dose inhibition of complex formation; active = rising FRET ratio curve, often small or poorly fitted; inconclusive = mostly compound fluorescence or quenching in the first reads; inactive = flat curves in all reads;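 further: potency means the concentration at half of the fitted maximal effect; 0% = DMSO wells and 100% = buffer wells lacking importin beta; nearly all actives have a fitted effect of over 15% in size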
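FRET biosensor Rango (snurportin 1 IBB between N-terminal EYFP and C-terminal Cerulean), 50 nM in PBS/1 mM DTT/0.02% Tween-20/0.1% BSA, preincubated 5 min RT with compound; 0.125 microM importin beta added, 45 min RT, CFP/YFP FRET ratio read.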
miR-21 reporter: raises the signal of a miR-21 reporter. HeLa miR-21 FLuc reporter, luciferase, 48 h. Potency, µM (series often up to 38.3 µM), without a hit: top-dose reporter change, positive = more light. 340,000 tested, under 10 active. AID 2288; active = well fitted rising curve with a large enough effect; inconclusive = small, poorly fitted or top-dose-only effect; inactive = no such curve, though single readings can be large or run the other way;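 further: % of control where 0% means no effect; miR-21 action dims this reporter so a rising signal means less miR-21 action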
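Luminescence from a firefly luciferase reporter carrying a miR-21 binding site downstream, stably expressed under a CMV promoter in HeLa cells that make miR-21 endogenously, reports miRNA modulation after 48 h compound exposure up to approximately 40uM final.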
Rango dissoc inh: prevents RanGTP from dissociating the Rango-importin beta complex. AID 540253. Potency, µM (highest dose often 46.1 µM), for the others: at the highest dose activity change, negative = inhibition. hit rate 0.071% among 340,000. Biochemical FRET Rango-importin beta, RanGTP-induced dissociation. O95149+P62826; active means falling FRET ratio curve, often poorly fitted, with flat reads before Ran was added; inconclusive means other falling curves, or compound fluorescence or quenching; inactive means flat or rising ratio curve;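 further: potency means the concentration at half of the fitted maximal effect; % of control where 0% means no effect; nearly all actives have a fitted effect of over 45% in size; -100% = wells without RanGTP and RCC1; the record marks most hits as doubtful in a second field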
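Rango FRET biosensor (snurportin-1 IBB flanked by N-terminal EYFP and C-terminal CFP10) at 0.1 uM, with 0.25 uM importin beta in PBS, 1mM DTT, 0.02% Tween-20, 0.1% BSA. 0.6 uM Ran, 2mM GTP and 0.2 uM RCC1 were then added for 45 min at room temperature. Inhibition read as loss of FRET rise.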
* hit, by the source's call; u = inconclusive; x = not tested or not shown; & = joins results of further samples. Only part of the results is shown, so the mix of outcomes need not match the whole.

no.	GLA inh pH 4.5	Rango-impB inh	miR-21 reporter	Rango dissoc inh	Compound
1	-3.7	-0.1%	-2.8%	-8.5%	Cc1ccc(C(=O)O/N=C/c2c(C)nn(C)c2Cl)cc1
2	2.0	4.1%	-70.2%	3.0%	O=C(N/N=C\C=C\c1ccco1)c1cc(-c2ccc3ccccc3c2)n[nH]1
3	x	3.9%	x	9.1%	O=C1NCC(Nc2ccccc2Cl)C(=O)N1 (stereo not drawn)
4	x	1.7%	-2.0%	9.8%	CCCN(CCC)CCCNC(=O)c1ccc(CS(=O)(=O)c2c(Cl)cccc2Cl)o1
5	x	0.6%	x	-4.0%	CC(Sc1nnc(-c2cccnc2)n1N)C(=O)N1CCOCC1 (stereo not drawn)
6	9.4	-0.6%	1.4%	-0.2%	CC(=O)Nc1ccc2c(c1)CCC2=O
7	x	-0.6%	-1.1%	1.1%	O=S1(=O)CCOC[C@H](c2ccccc2)N1Cc1ccccc1
8	-9.1	-1.7%	-36.3%	-0.8%	COc1ccc(/C=C2/SC(=O)NC2=O)cc1
9	4.8	4.1%	2.4%	-0.8%	O=C(CCN1C(=O)C2C3C=CC(C3)C2C1=O)NC1CCCc2ccccc21 (stereo not drawn)
10	x	1.1%	-0.1%&3.9%	0.6%	O=C(CN1C(=O)CCSc2ccc(S(=O)(=O)N3CCCC3)cc21)Nc1ccccc1
11	x	-3.0%	-1.5%	-1.8%	O=C(COC(=O)c1ccc(O)cc1)Nc1ccccc1
12	x	5.1%	x	9.9%	CN1C[C@@H]2[C@@H]3C(=O)N(C)C(=O)[C@@H]3[C@](Cc3ccccc3)(C1=O)N2C(=O)c1ccccc1
13	x	2.3%	x	-10.6%	CN1CCCCCC1=Nc1ccc([N+](=O)[O-])cc1
14	x	1.8%	x	15.9%	CCc1ccccc1NC(=O)CN1CCN(C(=O)CNC(=O)c2ccc(-c3ccccc3)cc2)CC1
15	x	1.0%	27.3%	21.7%	Cc1cc(Cl)ccc1NC(=S)NCCc1ccc(Cl)cc1
16	-8.7	-0.5%	-4.1%	-7.8%	CC(Cc1cccs1)NC(=O)Nc1ccc([N+](=O)[O-])cc1 (stereo not drawn)
17	4.9	7.9%	-1.4%	0.4%	C#CCOCCOCCOCCNc1nc(N2CCN(C(=O)[C@H]([C@@H](C)CC)n3cc([C@@H](N)CC(C)C)nn3)CC2)nc(N2CCN(C(=O)[C@H](CCCCN)n3cc([C@@H](N)CC(C)C)nn3)CC2)n1
18	x	3.3%	-10.3%	-11.3%	CCc1nnc(NC(=O)COc2ccc3ccccc3c2)s1
19	4.1	-0.1%	3.6%	5.5%	Cc1cc(=O)oc2cc(OCC(=O)NCC3CCCO3)ccc12 (stereo not drawn)
20	x	-2.7%	x	-4.3%	COCCN(C(=O)c1cc2c(s1)CCC2)c1c(N)n(CC(C)C)c(=O)[nH]c1=O
21	x	-2.0%	10.0%	0.7%	CC(=O)Nc1ccc(S(=O)(=O)N(Cc2cccnc2)Cc2cc3ccc(C)cc3[nH]c2=O)cc1
22	2.7	-5.0%	-2.1%	-2.9%	CC1(C)CC(=O)C2=C(C1)OC(c1ccncc1)C(C#N)=C2N (stereo not drawn)
23	2.5	0.1%	-80.0%	-19.5%	CC1CCCN(c2ccc(C(=O)NCc3cccs3)cn2)C1 (stereo not drawn)
24	-13.6&-7.4	3.5%	x	4.2%	COc1ccc(NC(=O)c2ccc(-c3ccc(-c4noc(C)n4)cc3C)cc2)cc1N1CCN(C)CC1
25	7.2	-5.2%	-2.2%	-3.8%	O=S1(=O)CCC(NC(=S)SCc2ccccc2Br)C1 (stereo not drawn)
26	8.0	-1.0%	0.0%	13.2%	CCN(CC)C(=O)CSc1nnc(CCCCCNC(=O)OC(C)(C)C)o1
27	-15.4	-3.8%	4.6%	3.9%	CCOC(CNC(=O)c1ccc(N2CCc3ccccc32)c([N+](=O)[O-])c1)OCC
28	1.2	-4.9%	-1.4%	u	COc1ccccc1CNC(=O)C1CCC(CNc2c(N3CCC(C)CC3)c(=O)c2=O)CC1 (stereo not drawn)
29	5.1	5.1%	11.3%	-6.0%	O=C(NNC(=O)C12CC3CC(CC(C3)C1)C2)c1ccccn1
30	-2.0	-3.6%	-8.5%	-18.9%	CCN1CCN(C(=S)Nc2ccc3nc(N4CCN(C)CC4)cc(C)c3c2)CC1
31	-13.4	x	-1.0%	x	CCOC(=O)c1sc(NC(=O)CSc2nc3c(c(=O)n2-c2ccc(F)cc2)SCC3)c(C(=O)OCC)c1C
32	x	0.8%	x	0.0%	O=C(NCc1ccccc1)c1ccc2c(c1)S(=O)(=O)c1cc(Cl)ccc1C2=O
33	10.9	5.4%	-67.2%	1.0%	Cc1cc(N)n2ncc(-c3cccc(Br)c3)c2n1
34	-2.4	-3.0%	-5.1%	0.1%	Cc1ccc(CSCCNC(=O)c2ccc(NS(C)(=O)=O)cc2)cc1
35	x	0.4%	-1.9%	-4.0%	Clc1ccc(CNCCCSc2ncccn2)cc1
36	-4.7	-1.8%	-35.3%	-0.5%	O=C(Nc1ccccc1F)c1ccc(Cn2cc(Br)cn2)cc1
37	x	-4.3%	-0.1%	24.9%	COc1cc(CN2CCNC(=O)C2CC(=O)NC2CCC2)cc(OC)c1 (stereo not drawn)
38	0.1	0.2%	-1.9%	5.8%	CCOC(=O)c1c(NC(=O)C2COc3ccccc3O2)sc(C(C)=O)c1C (stereo not drawn)
39	-2.0	5.8%	-23.9%	-17.8%	CCOc1ccc(N2C(=O)S/C(=C\c3cccn3C)C2=O)cc1
40	-4.1	0.4%	-6.7%	-10.6%	O=[N+]([O-])c1ccccc1S(=O)(=O)N1CCN(Cc2ccc3c(c2)OCO3)CC1
41	-4.5	2.3%	-52.1%	0.4%	O=C1c2ccccc2C(=O)C1c1ccccn1
42	-9.6	0.6%	-1.2%	-0.5%	CCn1c(=S)sc2c(=O)n(-c3ccccc3)c(SCC(=O)NCc3ccco3)nc21
43	5.0	u	-0.2%	-26.0%	CN1CC(C(=O)O)Cc2c1ccc1ccccc21 (stereo not drawn)
44	x	0.0%	0.5%	3.8%	CCc1noc(C)c1C(=O)Nc1cccc2ncccc12
45	-22.7	-3.2%	-21.3%	-8.4%	CCOC(=O)c1cnn(-c2nc(-c3ccccc3)cs2)c1C(F)(F)F
46	20.8	1.4%	-3.6%	-21.3%	CCOC(=O)c1[nH]c2cc3c(cc2c1NC(=O)CN1CCN(CCO)CC1)OCO3
47	1.1	1.8%	-1.5%	3.3%	c1ccc(C(c2ccccc2)c2noc(CN3CCN(C4CCCC4)CC3)n2)cc1
48	-4.7	-0.3%	-43.2%	6.8%	O=C(Cn1c(=O)sc2ccccc21)NCc1ccccn1
49	x	-2.6%	x	-13.6%	CCOC(=O)c1cccc(C2=CC(=O)C[C@H](c3ccc(OC)cc3)C2)c1
50	x	-3.4%	0.1%	20.1%	O=C(c1cccc2ccccc12)N1CCCCC1
51	x	0.1%	x	-7.3%	COc1ccccc1CNC(=O)C(=O)NCCC1CCCCN1S(=O)(=O)c1ccc(C)cc1 (stereo not drawn)
52	x	-3.6%	x	-6.3%	CCC1CCCCN1C(=O)COC(=O)c1cccs1 (stereo not drawn)
53	1.2	0.9%	-8.7%	-13.8%	O=C(NCc1ccco1)c1sc(=S)n2c1[nH]c(=O)c1ccccc12
54	5.1	-2.6%	18.1%	-15.9%	Cn1cccc1/C=N\NC(=O)Cc1ccc(Br)c2ccccc12
55	x	1.2%	-4.5%	10.4%	Cc1cccc(C(=O)c2cn[nH]c2-c2ccccc2O)c1
56	0.2	5.3%	-23.1%	0.6%	CCc1nc2oc3cc(OC)ccc3c(=O)c2c(=O)n1-c1ccccc1
57	x	0.4%	x	9.9%	CCCCn1c(N)c(N(CCOC)C(=O)C(C)N2C(=O)c3ccccc3C2=O)c(=O)[nH]c1=O (stereo not drawn)
58	x	0.0%	-11.2%	-4.8%	Cc1ccccc1NC(=O)c1ccc(NC(=O)C2CCCO2)cc1 (stereo not drawn)
59	-5.1	-3.7%	-21.1%	4.0%	COC(=O)c1ccc(-c2nc(-c3cccs3)no2)cc1
60	-11.8	1.2%	-4.8%	16.5%	CC(C)N(Cc1nc(-c2ccc(Cl)cc2)no1)C(=O)CCC1CCCC1

The list goes on.
no.	GLA inh pH 4.5	Rango-impB inh	miR-21 reporter	Rango dissoc inh	Compound
61	0.1	2.0%	-6.5%	32.3%	CCOc1ccc(-c2nnc3ccc(SC)nn23)cc1
62	2.7	1.3%	-33.0%	-0.9%	CC1=Nn2c(nc3sc4c(c3c2=O)CCCC4)SC1
63	6.6	2.3%	14.9%	-7.3%	CCCCCCCC(=O)N/N=C(\C)c1ccc(O)cc1O
64	-5.4	-3.6%	-2.2%	1.7%	Cc1ccc(NC(=O)N2CCCC2C(=O)NCc2cccs2)cc1 (stereo not drawn)
65	0.6	3.5%	-11.4%	10.4%	O=C(Cc1nnc(NC(=O)Nc2ccccc2F)s1)NCc1ccccc1
66	x	4.4%	x	1.0%	Cc1c(C(=O)N2CCN(C/C=C/c3ccccc3)CC2)oc2c(F)cccc12
67	x	-0.7%	x	-14.1%	O=C(CN1C(=O)NC2(CCCCC2)C1=O)N1CCN(S(=O)(=O)/C=C/c2ccccc2)CC1
68	3.4	2.7%	-3.6%	4.9%	Cc1cc(NC(=O)CN2CCCC(C)C2)n(-c2nc3ccccc3s2)n1 (stereo not drawn)
69	-7.0	4.2%	3.2%	-18.3%	COc1ccc(CC(=O)NC(C)c2nnc(SCC(=O)Nc3nc(C)cs3)n2C)cc1 (stereo not drawn)
70	1.7	u	-16.0%	-17.6%	CSc1nc(NCCOCCO)c2sc3nc(-c4ccco4)c4c(c3c2n1)CCC4
71	9.4	-1.6%	-8.3%	3.5%	O=C(CN1CCCc2ccccc21)NC(=O)NC1CCCCC1
72	x	1.3%	-10.1%	-2.6%	Cc1cc(NC(=O)c2ccccc2)ccc1NC(=O)Cc1ccccc1

Overlap with the part before: 2 entries, followed by the next part.
no.	GLA inh pH 4.5	Rango-impB inh	miR-21 reporter	Rango dissoc inh	Compound
71	9.4	-1.6%	-8.3%	3.5%	O=C(CN1CCCc2ccccc21)NC(=O)NC1CCCCC1
72	x	1.3%	-10.1%	-2.6%	Cc1cc(NC(=O)c2ccccc2)ccc1NC(=O)Cc1ccccc1
73	4.7	3.6%	0.5%	2.6%	O=C(NCCc1ccccn1)c1cc(-c2ccccc2Cl)nc2ccccc12
74	2.4	5.5%	-0.1%	-11.7%	CCOC(=O)c1sc2nc(C)nc(SCC(=O)NC(C)CCc3ccccc3)c2c1C (stereo not drawn)
75	x	-1.9%	0.1%	8.0%	Cc1cc(=O)n2nc(N3CCCC(C(=O)NCc4cccc(Cl)c4)C3)sc2n1 (stereo not drawn)
76	0.1	-4.5%	-8.9%	-7.4%	CC1CCN(CCCCOc2ccccc2Br)CC1
77	-6.6	-1.1%	-11.9%	3.9%	CCCCn1c(NCc2cccs2)nc2ccccc21
78	1.8	0.3%	-1.6%	1.7%	CCOC(=O)c1oc2ccccc2c1NC(=O)c1ccc(S(=O)(=O)N2CCCC2)cc1
79	15.1	6.1%	-24.3%	-11.2%	CC1CCN(S(=O)(=O)c2ccc3c(c2)C(=NO)c2cc(S(=O)(=O)N4CCC(C)CC4)ccc2-3)CC1

Complete entries, quoted from the list. Screens in order: GLA inh pH 4.5	Rango-impB inh	miR-21 reporter	Rango dissoc inh
CCCCn1c(NCc2cccs2)nc2ccccc21 reads -6.6	-1.1%	-11.9%	3.9%
CC1CCN(CCCCOc2ccccc2Br)CC1 reads 0.1	-4.5%	-8.9%	-7.4%
CCOC(=O)c1sc2nc(C)nc(SCC(=O)NC(C)CCc3ccccc3)c2c1C (stereo not drawn) reads 2.4	5.5%	-0.1%	-11.7%
CC1CCN(S(=O)(=O)c2ccc3c(c2)C(=NO)c2cc(S(=O)(=O)N4CCC(C)CC4)ccc2-3)CC1 reads 15.1	6.1%	-24.3%	-11.2%
CCOC(=O)c1oc2ccccc2c1NC(=O)c1ccc(S(=O)(=O)N2CCCC2)cc1 reads 1.8	0.3%	-1.6%	1.7%
